DUX4 txn inh: inhibitors of DUX4-driven ZSCAN4 reporter expression, primary screen, 293T cells, Gaussia and Italica luciferase | 293T-iDUX4 ZSCAN4-Gaussia luciferase reporter, 24 h; active compounds read low | activity change, negative = inhibition, % (concentration not given with the values) | hit rate 0.8% among 37,000;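 active = -10% or lower and over 25 points stronger than a control reporter; inconclusive = -10% or lower with a smaller gap; inactive = above -10%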;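 also: 0% = median of neutral control wells and -100% = median of positive control wells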
DUX4 txn inh difference: further read-out of DUX4 txn inh, marked with its call; Gaussia minus Italica difference, %; measured here: selective DUX4 reporter inhibition;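 worked out from the two reporters; negative = selective loss of the DUX4 reporter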
DUX4 txn inh control: recorded beside DUX4 txn inh, whose call it bears; activity change, negative = inhibition, %; measured here: Italica tet-on control reporter;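 0 = neutral control and -100 = positive control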
An asterisk follows results filed as active; ? = inconclusive; . = no result given. The list is partial; rates above refer to the full screens.

Sequence of screens – DUX4 txn inh | DUX4 txn inh difference | DUX4 txn inh control
CCC(=O)Nc1ccc2c(c1)C(=O)N(C)C[C@@H](OC)[C@@H](C)CN(C(=O)c1cnccn1)[C@H](C)CO2
    3 | 0 | 2.4
COc1ccc2c3c(n(C)c2c1)[C@@H](CO)N(CC1CCCCC1)CC31CN(C(C)=O)C1
    7 | -9 | 16
C[C@@H]1CCCCO[C@@H](CN(C)Cc2ccc(C(=O)Nc3ccccc3N)cc2)[C@H](C)CN([C@H](C)CO)C(=O)c2cc(N(C)C)ccc2O1
    -1 | -11 | 9.9
C[C@H](O)C#Cc1ccc2c(c1)O[C@@H](CN(C)Cc1ccc(-c3ccccc3)cc1)[C@@H](C)CN([C@H](C)CO)S2(=O)=O
    8 | 8 | -0.3
Cc1noc(C)c1NC(=O)N1C[C@@H](O)COC[C@@H]2O[C@H](CC(=O)N[C@@H]3CCN(Cc4ccccc4)C3)CC[C@H]21
    -1 | 3 | -3.5
CNC(=O)C[C@@H]1CC[C@H]2[C@@H](COc3ccc(NC(=O)Nc4ccccc4OC)cc3C(=O)N2C)O1
    -3 | -5 | 2.1
C[C@H](CO)N1C[C@H](C)[C@@H](CN(C)C(=O)CCCN(C)C)OCCCC[C@H](C)Oc2ccc(NC(=O)Nc3ccc4c(c3)OCO4)cc2C1=O
    -2 | -2 | 0.0
CN(C)C(=O)C[C@H]1CC[C@H]2[C@@H](COC[C@H](O)CN2Cc2nccs2)O1
    3 | 5 | -1.2
CCS(=O)(=O)N1CC2(CN(C(=O)c3ccc(F)cc3)[C@H](CO)c3c2c2ccc(OC)cc2n3C)C1
    6 | 1 | 4.7
COc1ccc2c3c([nH]c2c1)[C@@H](CO)N(C(=O)c1ccc(F)cc1)CC31CCN(C)CC1
    3 | -4 | 6.8
N#C[C@H]1[C@H](c2ccccc2-c2cccc(F)c2)[C@@H](CO)N1C(=O)C1CCC1
    4 | -7 | 11
C[C@H]1CN([C@@H](C)CO)C(=O)c2ccccc2-c2ccccc2CO[C@H]1CN(C)C(=O)C1CC1
    4 | -3 | 7.9
CC(C)NC(=O)N1[C@@H]2CN(C(=O)Nc3cccc(Cl)c3)c3ccccc3[C@@H]2[C@@H]1CO
    -4 | -3 | -0.2
CO[C@H]1CN(C)C(=O)c2cc(C#N)ccc2OCC[C@@H]2CC[C@@H](OC)[C@H](CN(C)C(=O)[C@H]1C)O2
    -1 | -1 | 0.5
CN1CCCCN2[C@@H](CO)[C@@H](c3ccc(-c4cccnc4)cc3)[C@@H]2C1
    17 | 21 | -4.8
O=C(C[C@@H]1C[C@H]2c3cc(NC(=O)Cc4ccncc4)ccc3O[C@H]2[C@H](CO)O1)NCc1ccccn1
    1 | -1 | 2.7
COc1cccc(NC(=O)N[C@H]2C=C[C@H](CC(=O)Nc3ccc(-c4ccccc4)cc3)O[C@H]2CO)c1
    4 | 0 | 4.6
C[C@@H]1CN([C@H](C)CO)C(=O)CCCn2cc(nn2)CO[C@H]1CN(C)Cc1ccc(C(=O)O)cc1
    -2 | -2 | 0.2
CS(=O)(=O)N1[C@@H](C#N)[C@@H](c2ccc(C#CC3CCCC3)cc2)[C@@H]1CO
    -1 | 0 | -1.0
O=C(C1CCOCC1)N1[C@H](CO)[C@H](c2ccccc2)C12CN(Cc1cncnc1)C2
    4 | -1 | 5.2

Some entries already given, limited to DUX4 txn inh control.
Structure | DUX4 txn inh control
CCC(=O)Nc1ccc2c(c1)C(=O)N(C)C[C@@H](OC)[C@@H](C)CN(C(=O)c1cnccn1)[C@H](C)CO2 | 2.4
COc1ccc2c3c(n(C)c2c1)[C@@H](CO)N(CC1CCCCC1)CC31CN(C(C)=O)C1 | 16
C[C@@H]1CCCCO[C@@H](CN(C)Cc2ccc(C(=O)Nc3ccccc3N)cc2)[C@H](C)CN([C@H](C)CO)C(=O)c2cc(N(C)C)ccc2O1 | 9.9

Remaining list, next part:
Sequence of screens – DUX4 txn inh | DUX4 txn inh difference | DUX4 txn inh control
CCCNC(=O)N1CC2(C1)[C@H](c1ccccc1)[C@H](CO)N2CC1CC1
    6 | 3 | 3.0
COc1ccc2c3c([nH]c2c1)[C@H](CO)N(CC1CC1)CC31CCN(C(=O)c2ccccc2F)CC1
    ? | . | .
CCCNC(=O)N1[C@@H](CO)[C@@H](c2ccc(C3=CCCC3)cc2)[C@@H]1CNC(=O)CC
    -2 | -1 | -0.1
CCC(=O)N1CCC2(CC1)CN(Cc1cc(F)ccc1F)[C@H](CO)c1[nH]c3cc(OC)ccc3c12
    ? | . | .
CN1CCCCN2[C@@H](CO)[C@H](c3ccc(-c4ccc(F)cc4)cc3)[C@@H]2C1
    18 | 22 | -4.0
COc1ccc(S(=O)(=O)N(C)C[C@H]2Oc3c(NC(=O)c4nc5ccccc5s4)cccc3C(=O)N([C@@H](C)CO)C[C@@H]2C)cc1
    -1 | -1 | 0.3
COc1ccc(CN2[C@@H]3CNc4ccccc4[C@@H]3[C@@H]2CO)cc1
    7 | 6 | 1.2
C[C@@H]1CN([C@H](C)CO)C(=O)c2cc(N(C)C)ccc2O[C@@H](C)CCCCO[C@@H]1CN(C)C(=O)Nc1cccc2ccccc12
    2 | 2 | 0.0
COc1ccc2c3c(n(C)c2c1)[C@H](CO)N(C)CC31CCN(S(C)(=O)=O)CC1
    13 | 10 | 3.6
COc1ccccc1NC(=O)N[C@@H]1C=C[C@H](CC(=O)N[C@@H](C)c2ccccc2)O[C@H]1CO
    3 | 6 | -2.6

Single entries from the entries so far.
Under DUX4 txn inh difference, `CN1CCCCN2[C@@H](CO)[C@H](c3ccc(-c4ccc(F)cc4)cc3)[C@@H]2C1` shows 22
Under DUX4 txn inh, `C[C@@H]1CN([C@H](C)CO)C(=O)c2cc(N(C)C)ccc2O[C@@H](C)CCCCO[C@@H]1CN(C)C(=O)Nc1cccc2ccccc12` shows 2
Under DUX4 txn inh difference, `COc1ccc(S(=O)(=O)N(C)C[C@H]2Oc3c(NC(=O)c4nc5ccccc5s4)cccc3C(=O)N([C@@H](C)CO)C[C@@H]2C)cc1` shows -1
Under DUX4 txn inh, `CCCNC(=O)N1CC2(C1)[C@H](c1ccccc1)[C@H](CO)N2CC1CC1` shows 6
Under DUX4 txn inh difference, `COc1ccc2c3c(n(C)c2c1)[C@H](CO)N(C)CC31CCN(S(C)(=O)=O)CC1` shows 10

(more compounds)
Sequence of screens – DUX4 txn inh | DUX4 txn inh difference | DUX4 txn inh control
CN(C)CCCNC(=O)C[C@@H]1C=C[C@H](NC(=O)Cc2cccnc2)[C@H](CO)O1
    3 | 7 | -3.7
CO[C@@H](CN(C)C(=O)C1CCOCC1)[C@@H](C)CN(C(=O)Nc1ccc(C(F)(F)F)cc1)[C@H](C)CO
    -2 | -1 | -1.6
O=C(C[C@@H]1CC[C@H]2[C@@H](COC[C@H](O)CN2Cc2cc(F)ccc2F)O1)N[C@H]1CCN(Cc2ccccc2)C1
    ? | . | .
CN(C)CC(=O)N1[C@H](C#N)[C@H](c2ccccc2-c2ccccc2F)[C@@H]1CO
    10 | 10 | -0.2
COC(=O)C[C@@H]1C[C@H]2c3cc(NC(=O)c4cccnc4)ccc3O[C@H]2[C@H](CO)O1
    10 | 12 | -1.9
COc1ccc2c3c(n(C)c2c1)[C@@H](CO)NCC31CCN(Cc2ccc(F)cc2)CC1
    -8 | -1 | -6.5
CCCC#Cc1ccc([C@@H]2[C@@H](CO)N3CCCCN(S(=O)(=O)Cc4ccccc4)C[C@@H]23)cc1
    6 | -2 | 7.2
CCCN1[C@@H]2c3ccc(/C=C/c4ccccc4)c(=O)n3C[C@@H]2[C@@H](CO)[C@@H]1C(=O)NCC
    -6 | -10 | 3.7
O=C(C[C@H]1CC[C@H](NC(=O)C2CCOCC2)[C@H](CO)O1)NCC1CCCCC1
    -8 | -1 | -6.8
Cc1ccc(OC(=O)N(C)C[C@@H]2OCc3ccccc3-c3ccccc3C(=O)N([C@H](C)CO)C[C@@H]2C)cc1
    0 | 8 | -8.3
CCNC(=O)C[C@H]1CC[C@@H]2[C@H](COC[C@H](O)CN2C(=O)C2CCOCC2)O1
    8 | -4 | 11
COc1cccc(CNC(=O)C[C@@H]2CC[C@@H]3[C@H](COc4ccc(NS(=O)(=O)c5ccccc5F)cc4C(=O)N3C)O2)c1
    1 | 2 | -1.7
CC(=O)N1[C@@H]2c3ccc(-c4cccnc4)c(=O)n3C[C@H]1[C@H](CO)[C@H]2C(=O)NC1Cc2ccccc2C1
    2 | -7 | 8.5
COc1ccc(NC(=O)Nc2ccc3c(c2)C(=O)N([C@@H](C)CO)C[C@H](C)[C@H](CN(C)Cc2ccncc2)OCCCC[C@H](C)O3)cc1
    -6 | -5 | -0.4
CNC[C@@H]1OCCCC[C@H](C)Oc2ccc(NC(=O)Nc3c(C)noc3C)cc2C(=O)N([C@H](C)CO)C[C@@H]1C
    2 | -1 | 3.1
CCCNC(=O)N1CCC2(CC1)CN(C(=O)c1ccncc1)[C@@H](CO)c1[nH]c3cc(OC)ccc3c12
    7 | 7 | -0.4
C[C@@H]1CCCCO[C@@H](CN(C)S(=O)(=O)c2ccccc2)[C@H](C)CN([C@H](C)CO)C(=O)c2cc(NS(C)(=O)=O)ccc2O1
    1 | 0 | 1.1
CCCC#Cc1ccc([C@H]2[C@@H](CO)N(C(=O)C3CCCC3)[C@H]2C#N)cc1
    -1 | -1 | 0.2
COc1ccccc1S(=O)(=O)N(C)C[C@@H]1OCc2ccccc2-c2c(n(C)c3ccccc23)C(=O)N([C@@H](C)CO)C[C@H]1C
    ? | . | .
O=C(C[C@H]1CC[C@@H]2[C@H](COC[C@H](O)CN2Cc2cccc(Cl)c2)O1)NCC1CCCCC1
    -6 | -5 | -1.2
COc1ccccc1-c1ccc([C@@H]2[C@H](CO)N(C(=O)C3CC3)C23CN(C(C)=O)C3)cc1
    -8 | -8 | 0.2
COc1ccc2c3c(n(C)c2c1)[C@@H](CO)N(C(=O)CC1CC1)CC31CN(C(=O)NC(C)C)C1
    12 | 18 | -6.5
CN1C(=O)c2cc(NS(=O)(=O)CC(F)(F)F)ccc2OC[C@H]2O[C@@H](CC(=O)NCC3CCCCC3)CC[C@@H]21
    -1 | -4 | 2.5
CCN(C[C@@H]1[C@@H](c2ccccc2)[C@@H](CO)N1C(C)=O)C(=O)c1ccccn1
    -2 | -1 | -0.6
COc1ccc2c3c(n(C)c2c1)[C@H](CO)N(C(=O)CN(C)C)CC31CN(S(C)(=O)=O)C1
    18 | 15 | 2.9
O=C(C[C@@H]1CC[C@H]2[C@@H](COC[C@@H](O)CN2CC2CCCCC2)O1)NCc1ccc(F)cc1
    ? | . | .
CNC[C@@H]1OCCCC[C@H](C)Oc2ccc(NC(=O)CCC(F)(F)F)cc2C(=O)N([C@@H](C)CO)C[C@H]1C
    -1 | -4 | 2.1
N#C[C@@H]1[C@H](c2ccccc2-c2ccccc2F)[C@@H](CO)N1C(=O)C1CCOCC1
    1 | -9 | 10
O=C(c1cccc(F)c1)N1CC(=O)N2[C@@H](CO)[C@H](c3ccc(/C=C/c4ccccc4)cc3)[C@@H]2C1
    -5 | -6 | 0.5
COc1ccc2c3c([nH]c2c1)[C@H](CO)N(C(=O)c1ccncc1)CC31CN(Cc2cccnc2)C1
    23 | 9 | 15
O=C(C[C@H]1CC[C@@H]2[C@H](COC[C@@H](O)CN2C(=O)Nc2ccccc2)O1)NCc1ccccc1F
    1 | -1 | 1.6
CCCNC(=O)C[C@@H]1CC[C@H]2[C@@H](COC[C@@H](O)CN2Cc2cccc(F)c2)O1
    2 | 5 | -2.2
CC(C)C(=O)Nc1ccc2c(c1)C(=O)N(C)[C@H]1CC[C@H](CC(=O)NCc3ccc(F)cc3)O[C@@H]1CO2
    2 | 1 | 1.0
COc1ccc(-c2ccc([C@H]3[C@H](CO)N4C(=O)CN(Cc5ccc(F)cc5)C[C@@H]34)cc2)cc1
    8 | 6 | 2.5
CCCNC(=O)Nc1ccc2c(c1)C(=O)N(C)C[C@@H](OC)[C@H](C)CN[C@@H](C)CO2
    -3 | -2 | -1.2
CCCNC(=O)N1C[C@@H](O)COC[C@H]2O[C@H](CC(=O)N3CCN(C)CC3)CC[C@@H]21
    10 | 5 | 5.2
O=C(C[C@H]1C[C@H]2c3cc(NC(=O)C4CCOCC4)ccc3O[C@H]2[C@@H](CO)O1)NCc1cccnc1
    -2 | 1 | -3.1
CCCNC(=O)N(C)C[C@@H]1Oc2ncc(C#CCc3ccccc3)cc2C(=O)N([C@H](C)CO)C[C@H]1C
    -3 | -4 | 0.4
O=C(c1ccccc1F)N1CC2(C1)[C@@H](c1ccccc1)[C@H](CO)N2CC1CC1
    10 | 11 | -1.2
O=S(=O)(c1ccccc1)N1CC2(C1)[C@@H](c1ccccc1)[C@@H](CO)N2CC1CCOCC1
    -1 | 3 | -3.1
CO[C@H]1CN(C)C(=O)c2ccc(NS(=O)(=O)c3c(C)noc3C)cc2OC[C@@H](C)NC[C@@H]1C
    0 | -3 | 2.3
COCCNC(=O)C[C@@H]1CC[C@@H]2[C@@H](COc3ccc(NC(=O)C4CCOCC4)cc3C(=O)N2C)O1
    -2 | -5 | 3.2
O=C(c1cccnc1)N1C[C@@H]2[C@H](c3ccccc31)[C@H](CO)N2C(=O)CN1CCOCC1
    -2 | -1 | -0.4
COc1ccc(-c2cnc3c(c2)C(=O)N([C@H](C)CO)C[C@H](C)[C@H](CN(C)S(=O)(=O)c2cccs2)O3)cc1
    3 | -2 | 4.5
COc1ccccc1C(=O)Nc1ccc2c(c1)OC[C@H](C)N(CC1CC1)C[C@@H](C)[C@H](OC)CN(C)C2=O
    -9 | -9 | -0.1
CN1c2ccc(-c3ccc(F)cc3)cc2[C@@H]2[C@@H](CCN2C(=O)Cc2ccccn2)[C@@H]1CO
    0 | 3 | -2.4
CC(C)C#Cc1ccc([C@@H]2[C@@H](CO)N3C(=O)CN(C(=O)Cc4ccccc4)C[C@H]23)cc1
    9 | 11 | -2.5
OC[C@H]1[C@@H](c2ccc(Br)cc2)[C@@H]2CNCCCCN12
    7 | -1 | 8.8
O=C(Nc1ccc(F)cc1)N1CC(=O)N2[C@H](CO)[C@@H](c3ccc(Br)cc3)[C@H]2C1
    12 | 4 | 7.9

Compound activity deposited in PubChem by Broad Institute.
